# Screening results deposited in PubChem by several laboratories.
# eIF4H FP inh: human eIF4H binding inhibitors, primary screen, translation initiation inhibitor project, biochemical, uHTS, fluorescence polarization | AID 2012, 2009 | inhibition, % at 35 µM | eIF4H fluorescence polarization binding assay | Eukaryotic translation initiation factor 4H (Homo sapiens), Q15056 | hit rate 0.94% among 290,000;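 active means 50% or more with normal probe brightness, or confirmed in later tests; inconclusive means above 50% with abnormal brightness, or retests that disagree; inactive means below 50% or failed in later tests; about a fifth of its hits are not listed in these tables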;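 further: calls also rest on retests at 20 µM and on dose response follow-up; 0% = protein and probe with vehicle and 100% = probe without protein; strong numbers were not always called active; many hits fall short of the cut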
# UUG fidelity: modulators of yeast start codon fidelity, primary screen, whole organism, S. cerevisiae, single point, plate reader | S. cerevisiae UUG-firefly luciferase reporter, luminescence/redox ratio | hit rate 0.13% among 350,000 | activity score, % at 18.7 µM;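 active means replicate mean at a twofold rise or more, about +100% in these data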;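 further: firefly luciferase made from a UUG start codon reports start codon fidelity; reporter light over untreated wells divided by growth signal over untreated wells; some hits fall short of that in this replicate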
# Rce1 inh: yeast Rce1p protease inhibitors, primary screen, biochemical, fluorescence, cell-free homogeneous; CAAX prenyl protease 2 (Saccharomyces cerevisiae (strain ATCC 204508 / S288c)), Q03530; yeast membranes, quenched prenylated peptide cleavage fluorescence; calls only; hit rate 0.27% among 290,000; AID 2563, 2010;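 active means fall in fluorescence gain of 50% or more versus controls, with final raw signal at or below 3038400; inconclusive means same 50% fall but final raw signal above 3038400; inactive means fall in fluorescence gain under 50%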;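 further: plate controls were neutral control wells for no effect and wells lacking membranes for full effect; tested at 10 µM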
# MT1-MMP act inh: blockers of MT1-MMP proenzyme processing, primary screen, HT1080 RFP-PRO-GFP cells, GFP/RFP fluorescence | GFP/RFP ratio fluorescence, overnight; percent of plate control window, DMSO zero | Matrix metalloproteinase-14 (Homo sapiens), P50281 | hit rate 0.061% among 360,000 | GFP/RFP ratio change, % at 20 µM;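 active means GFP/RFP ratio change of at least 30% with cell ATP level not reduced by more than half and red fluorescence within 50% of control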; further: strong numbers were not always called active
#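 Compound: 20 µM single dose, 1% DMSO / System: HT1080 RFP-PRO-GFP cells / Controls: DMSO and RFP-L50D-GFP cell wells / Read-out basis: GFP/RFP fluorescence ratio / Schedule: overnight compound exposure at 37 °C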
# HIV Env fusion: inhibitors of HIV-1 Env-driven cell-cell fusion, primary screen, HeLa-JRFL effector, CEM21 target cells, luciferase; inhibition, % at 12.3 µM; hit rate 1.1% among 360,000;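 active means mean replicate inhibition score of at least 50 and every replicate individually at or above 50; inconclusive means only one of the two criteria met; inactive means mean below 50 and not all replicates reaching 50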;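 further: 0% = plate neutral controls and 100% = maraviroc near 300 nM; one replicate is shown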
# CSC inhib: cancer stem cell viability inhibitors, primary screen, luminescence | inhibition, % at 7.5 µM | hit rate 1.1% among 300,000 | cancer stem cell-like cells viability | AID 2717, 2010;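 active means mean at 75% or more and at least half the replicates too; inconclusive means mean and replicates disagree; tested in HMLE shEcad cells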;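 further: 0% = median of negative and 100% = median of positive control wells; the first replicate is given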
# PABP polyA inh: PABP poly(A) RNA binding inhibitors, primary screen, biochemical, fluorescence polarization, uHTS; inhibition, % at 35 µM; AID 2014, 2009; Polyadenylate-binding protein 1 (Homo sapiens), P11940; hit rate 1% among 290,000;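 active means 50% or more with normal probe brightness, or confirmed in later tests; inconclusive means above 50% with abnormal brightness, or retests that disagree; inactive means below 50% or failed in later tests; about a fifth of its hits are not listed in these tables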;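 further: calls also rest on retests at 20 µM and on dose response follow-up; controls were probe without protein and protein plus probe with vehicle; some compounds called inactive have numbers as strong as hits; many hits fall short of the cut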
# Target sequence (P11940 whole entry, looked up): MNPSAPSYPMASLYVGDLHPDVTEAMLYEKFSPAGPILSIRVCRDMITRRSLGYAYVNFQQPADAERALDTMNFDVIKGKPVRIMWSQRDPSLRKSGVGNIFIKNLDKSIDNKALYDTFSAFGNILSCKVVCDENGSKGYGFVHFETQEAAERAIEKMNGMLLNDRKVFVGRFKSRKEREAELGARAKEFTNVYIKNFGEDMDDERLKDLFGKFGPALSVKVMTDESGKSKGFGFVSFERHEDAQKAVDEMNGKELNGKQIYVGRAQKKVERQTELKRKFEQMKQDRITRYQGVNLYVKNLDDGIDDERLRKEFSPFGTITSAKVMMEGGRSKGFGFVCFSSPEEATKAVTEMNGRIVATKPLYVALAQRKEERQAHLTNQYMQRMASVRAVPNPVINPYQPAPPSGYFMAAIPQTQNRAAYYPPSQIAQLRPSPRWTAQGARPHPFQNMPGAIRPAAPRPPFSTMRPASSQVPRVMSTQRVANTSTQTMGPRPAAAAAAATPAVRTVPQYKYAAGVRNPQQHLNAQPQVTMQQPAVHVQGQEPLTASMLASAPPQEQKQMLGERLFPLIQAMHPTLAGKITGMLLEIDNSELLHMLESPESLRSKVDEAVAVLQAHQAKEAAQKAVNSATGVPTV
# eIF4H FP inh retest: second read-out of eIF4H FP inh, no call of its own (marks repeat the call); inhibition, %; compound at 20 µM; confirmation average;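 mean of two retest wells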
# PABP polyA inh retest: further read-out of PABP polyA inh, marked with its call; inhibition, %; compound at 20 µM; confirmation repeats;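 mean of two retest wells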
# MT1-MMP act inh RFP: further read-out of MT1-MMP act inh, marked with its call; RFP signal change, %; measured here: RFP expression control read;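 0 = vehicle wells; hits needed this value within 50% of zero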
# Starred values were filed as active, the others as inactive; i = inactive; ? = inconclusive; . = no result given. An excerpt, so the mix of outcomes need not match the whole.
SMILES,eIF4H FP inh,UUG fidelity,Rce1 inh,MT1-MMP act inh,MT1-MMP act inh RFP,HIV Env fusion,CSC inhib,PABP polyA inh,others
Cn1c(-c2ccc[nH]c2=O)nc2cc(Cl)ccc21,-5,2,i,2,8,-15,-4,-1,
CCN(Cc1cc2cc(C)ccc2[nH]c1=O)S(=O)(=O)c1ccccc1,0,-16,i,-4,-7,12,-2,-8,
COc1cc(NC(=O)COC(=O)CNS(=O)(=O)c2ccc(F)c(F)c2F)cc(OC)c1,6,.,i,3,4,-19,-10,8,
CCOC(=O)C(=O)Nc1sc(C(=O)N(CC)CC)c(C)c1C#N,-7,.,i,0,2,1,.,-2,
O=C(CN1CCN(c2ncccn2)CC1)N1CCc2ccccc21,4,-3,i,3,2,20,-10,11,
O=C(NCCCNC(=O)c1cnccn1)c1ccc(Cl)c(Cl)c1,-5,.,i,2,0,-6,15,10,
CCc1nc2ccc(C(=O)N3CCN(C(C)=O)CC3)cn2c1N(C=O)Cc1ccc(OC)cc1,.,-2,.,-1,3,1,.,.,
O=C1NC(c2ccc3c(c2)OCO3)Nc2ccccc21 (stereo unspecified),8,-5,i,1,-1,.,-2,-6,
Cc1cc(CNC(=O)C2CCC(=O)N(CCc3cccc(F)c3)C2)nn1C (stereo unspecified),-1,-13,i,1,7,14,-20,-8,
N#Cc1nc(-c2ccco2)oc1NCc1ccco1,-6,-20,i,8,1,1,-6,-11,
Cc1ccc(S(=O)(=O)N2CCN(S(=O)(=O)N(C)C)CC2)cc1,-3,-16,i,-1,-1,.,-7,-9,
COC(=O)CCCC1=CC2=CC(=O)C(C)(OC(=O)c3cccs3)C(=O)C2=CN1CC(C)C (stereo unspecified),81,-12,i,9,5,12,-8,37*,eIF4H FP inh retest=28;PABP polyA inh retest=67*
O=C(c1cn(CC2CCCCC2)nn1)N1CCN(c2ccc(F)cc2)CC1,2,-15,i,-2,-13,17,.,10,
O=C1CC(N2CCSCC2)C(=O)N1c1ccc(Br)cc1 (stereo unspecified),-10,-29,i,0,2,7,-6,2,
C[C@H]1COC[C@@H](C/C=C/c2ccccc2)N1c1ccccc1,.,-14,.,-3,-3,10,.,.,
CC(C)(C)NC(=O)Cn1nnc(-c2ccccc2NC(=O)c2ccco2)n1,.,-4,i,4,7,-57,.,.,
COc1ccc(OC)c(S(=O)(=O)Nc2ccc(OCC(=O)O)cc2)c1,6,-22,i,-2,7,6,-3,4,
Cn1c(CCN2CCCCC2)nc2cc(NC(=O)NC3CCCCC3)ccc21,61,-10,i,-3,-2,-64,-14,24,eIF4H FP inh retest=-6;PABP polyA inh retest=-2
C[C@H](CO)N1C[C@H](C)[C@@H](CN(C)S(=O)(=O)c2ccc(F)cc2)Oc2ccc(NS(=O)(=O)c3ccc(F)cc3)cc2C1=O,.,4,.,3,-2,-11,-18,.,
CCOC(=O)C(CCCCC(NC(C)=O)(C(=O)OCC)C(=O)OCC)(NC(C)=O)C(=O)OCC,-3,3,i,1,5,2,-14,-2,

# The last 3 compounds of the section above lead into the next.
SMILES,eIF4H FP inh,UUG fidelity,Rce1 inh,MT1-MMP act inh,MT1-MMP act inh RFP,HIV Env fusion,CSC inhib,PABP polyA inh,others
Cn1c(CCN2CCCCC2)nc2cc(NC(=O)NC3CCCCC3)ccc21,61,-10,i,-3,-2,-64,-14,24,eIF4H FP inh retest=-6;PABP polyA inh retest=-2
C[C@H](CO)N1C[C@H](C)[C@@H](CN(C)S(=O)(=O)c2ccc(F)cc2)Oc2ccc(NS(=O)(=O)c3ccc(F)cc3)cc2C1=O,.,4,.,3,-2,-11,-18,.,
CCOC(=O)C(CCCCC(NC(C)=O)(C(=O)OCC)C(=O)OCC)(NC(C)=O)C(=O)OCC,-3,3,i,1,5,2,-14,-2,
CC1C(=O)N(Cc2cn(Cc3ccco3)nn2)CCS(=O)(=O)N1Cc1ccc(-c2ccncc2)cc1 (stereo unspecified),.,-10,.,-3,-1,-17,.,.,
Cc1ccc(SCCC(=O)OCC(=O)NCC2CCCCC2)cc1,5,.,i,0,4,-5,15,-11,
Cn1cc(/C=N/NC(N)=S)c2ccccc21,6,.,i,4,3,34,1,-2,
Cc1nc(COc2cccc(Cl)c2)sc1C(=O)/C=C/N(C)C,1,-27,i,4,-1,-8,28,-12,
O=C(NN1CCOCC1)c1ccc(Cl)cc1Cl,.,-9,.,-3,0,12,4,.,
Cc1ccc(-n2ncc3c2CCCC3NC(=O)c2ccoc2)cc1C (stereo unspecified),-4,-6,i,6,-11,.,-7,6,
CC(C)(C)C(=O)Nc1ccc(NC(=O)C(C)(C)C)cc1,2,1,i,4,3,-5,-5,6,
Cc1ccc(S(=O)(=O)NCc2ccccc2)cc1C(=O)N(C)Cc1ccc(F)cc1,-1,-2,i,2,-4,7,-6,-2,
C=CCn1cc(Cl)c(=O)n(CC=C)c1=O,5,-8,i,4,5,-6,-14,6,
Cc1cccc(N2CCN(S(=O)(=O)c3cc4c(cc3Cl)NC(=O)CO4)CC2)c1C,21,-5,i,-2,-1,-40,-1,-18,
N=c1c(C(=O)NCc2ccccc2)cc2c(=O)n3ccccc3nc2n1CCCN1CCOCC1,16,-3,.,3,10,.,.,18,
O=C1CCCc2c1[nH]c1c(Br)cccc21,-7,-6,i,-2,0,.,-1,-10,
CC(C)c1ccccc1NC(=O)CNC(C)c1ccc(F)cc1 (stereo unspecified),2,-9,i,0,-2,-33,2,8,
Cn1cc(NC(=O)OCc2ccc(Cl)cc2)c(C(F)(F)F)n1,0,.,i,2,-1,-30,4,1,
COC(=O)c1cc(S(=O)(=O)N2CCN(c3cccc(C)c3C)CC2)c[nH]1,-2,-8,i,-4,-13,6,29,3,
N#C/C(=N\Nc1ccc(Cl)cc1)C(=O)c1ccccc1,-3,-8,i,7,-25,78*,59,-4,
Cc1ccc(NC(=S)NNc2ncc(C(F)(F)F)cc2Cl)c(C)c1,9,-27,i,17,10,.,13,-1,
CCC(=O)Nc1cc(C)c(NC(=O)CCc2ccccc2)cn1,?,-15,i,-8,0,13,13,?,
COc1ccc(NS(=O)(=O)c2cc(NC(=O)CC(C)(C)C)ccc2N2CCCC2)cc1,.,-1,.,1,1,5,.,.,
O=C(CCN1C(=O)/C(=C/c2ccccc2)SC1=S)NCCCN1CCOCC1,-18,-12,.,-1,2,-3,42,1,
Nc1cc(=O)[nH]c(SCC(=O)Nc2cccc(Cl)c2)n1,-8,-17,i,1,-1,-127,-2,-7,
Cc1cc(C)nc(NS(=O)(=O)c2ccc(NC(=O)c3cc(=O)c4ccccc4o3)cc2)n1,.,-3,i,-3,-3,-8,-9,.,
CCC(SCC(=O)OC)C(=O)Nc1nnc(C(C)C)s1 (stereo unspecified),-3,-9,i,3,3,.,1,3,
Cc1cc(NC(=O)CS(=O)(=O)c2cn(Cc3cccc(F)c3)c3ccccc23)no1,-1,-3,i,-5,-16,73*,2,-9,
CCC[C@H]1CN(c2ccccc2)C(=O)[C@@H]1CC(=O)NC,.,-13,.,0,1,-20,.,.,
Cc1nn(-c2ccccc2)c(C)c1/C=N/NC(=O)c1ccc(F)cc1,.,.,i,0,-2,9,1,.,
O=C(CSCc1nc2ccccc2[nH]1)N1CCN(c2cccc(Cl)c2)CC1,2,-19,i,0,0,18,-27,7,
CCCN(CC(=O)Nc1ccccc1OC)C(=O)CN1C(=O)NC2(CCCCC2)C1=O,.,-14,.,10,-1,0,-1,.,
COc1ccc(Cl)cc1N1C(=NC(=O)C2CCCCC2)SC2CS(=O)(=O)CC21 (stereo unspecified),-9,-20,i,3,-2,8,-22,4,
CC(C)Oc1ccc(N2CC(C(=O)Nc3ccc4c(c3)OCO4)CC2=O)cc1 (stereo unspecified),-7,0,i,0,1,-6,-3,-9,
Cc1c(OCC(=O)NC(Cc2ccc(Cl)cc2)C(=O)O)ccc2c(-c3ccccc3)cc(=O)oc12 (stereo unspecified),4,-19,i,12,8,.,14,12,
O=C(N/N=C/c1ccncc1)c1ccncc1,.,-11,.,-3,2,-5,.,.,
O=C(Nc1ccc(Cl)cc1)C1C2C=CC3(O2)C1C(=O)N(CCCN1CCCCC1)C3C(=O)NC1CCCCC1 (stereo unspecified),-2,-12,.,0,0,-3,-2,-1,
Cc1cc(N2CCCCCC2)nc2ccc(F)cc12,.,8,i,-1,4,1,26,.,
COc1ccc(C)cc1-n1[nH]nnc1=S,-8,.,i,-1,3,-2,-10,-2,
CC(=O)c1ccc(S(=O)(=O)N2CCCC(N(C)CCc3ccccn3)C2)cc1 (stereo unspecified),-11,-12,i,-4,-1,0,.,18,
CCC1(C)Cc2c(sc3nnn(CC(=O)Nc4ccccc4C)c(=O)c23)CO1 (stereo unspecified),9,-18,i,7,-1,-13,12,4,
Oc1ccccc1CNc1nc2ccccc2n1CCN1CCCCC1,-6,-12,i,3,4,-37,2,-6,
O=C(NCCNC(=O)c1ccco1)c1ccco1,4,-8,i,1,-1,1,.,8,
COc1ccc(C)cc1S(=O)(=O)NCC(c1ccco1)N1CCc2ccccc2C1 (stereo unspecified),.,6,i,0,-2,37,12,.,
FC(F)(F)c1cccc(NC(=S)Nc2cccc(NC(=S)Nc3cccc(C(F)(F)F)c3)n2)c1,3,-16,i,5,-4,-9,34,5,
Cn1ccsc1=NC(=O)c1ccc(CS(C)(=O)=O)cc1,4,-3,i,5,6,-8,0,-1,
O=C(Nc1cccc(O)c1)c1cccc(S(=O)(=O)N2CCCC2)c1,-5,-11,i,1,-3,.,2,7,
Nc1ccc(Cl)c(S(=O)(=O)Nc2ccccc2Cl)c1,-4,-7,i,-1,-3,13,-9,-15,
COc1cccc2cc(/C(=N/O)c3ccc(Br)cc3)oc12,-8,.,i,-5,-4,-2,1,-14,
O=C(CSCCO)Nc1cccc([N+](=O)[O-])c1,2,.,i,4,10,19,8,12,
O=C(O)CCCN1C(=O)C(=O)/C(=C(/O)c2ccc(Cl)cc2)C1c1ccccc1 (stereo unspecified),-2,-23,i,-2,0,-4,-9,7,
Cc1ccc(-c2cc(C(=O)Nc3cccnc3)c3ccccc3n2)o1,-4,-18,i,-17,2,.,18,8,
COc1ccccc1N1CCN(C2CCCN(C(=O)c3snnc3C)C2)CC1 (stereo unspecified),-1,-16,i,-3,4,-6,-19,4,
COc1ccccc1C(=O)NCCC(=O)Nc1ncccc1O,-13,-11,i,-6,-1,-3,-6,-2,
Cc1ccccc1-c1nc(CS(=O)(=O)CC(=O)NCCN2CCCC2)c(C)o1,-18,-7,i,0,8,9,6,-4,
Cc1ccc(S(=O)(=O)c2ccc(C)cc2)cc1,5,-8,i,1,-1,.,-9,-3,
CCN(CC)CCN(C(=O)c1ccc(CN2CCCCC2)o1)C(C(=O)NC1CCCCC1)c1ccc(F)cc1 (stereo unspecified),0,8,i,-6,-1,14,6,8,
CSCC[C@H](NC(=O)c1cccnc1)c1nnc2ccccn12,.,.,i,0,1,-3,-6,.,
